# Screening results: PubChem BioAssay, several laboratories
# Ecoli rRNA inh – inhibitors of bacterial rRNA selective over humanized ribosomes; actives 1.6% (n = 350,000); E. coli WT GFP vs humanized-ribosome RFP mutants, fluorescence, 24 h; active compounds read low; DMSO median 0, no signal -100; GFP signal change (wild-type ribosome), % (no concentration beside the values);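 active means significant combined selectivity score with lowered wild-type GFP, culture density cut under 30%, mutant RFP and density less affected; inactive means any of these conditions unmet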; further: one replicate is shown; some compounds called inactive have numbers as strong as hits
# UCH37 DUB inh – inhibitors of human deubiquitinating enzyme UCH37; Q9Y5K5; inhibition, % (test concentration not listed); purified proteasome/UCH37, Ub-AMC cleavage fluorescence; actives 0.33% (n = 330,000); AID 588478;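 active means mean of two replicates above 20%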;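 further: 0% = compound-free wells with enzyme and 100% = wells lacking proteasome; stock transfer was 100 nL into about 20 µL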
# Target sequence (Q9Y5K5 whole entry, looked up): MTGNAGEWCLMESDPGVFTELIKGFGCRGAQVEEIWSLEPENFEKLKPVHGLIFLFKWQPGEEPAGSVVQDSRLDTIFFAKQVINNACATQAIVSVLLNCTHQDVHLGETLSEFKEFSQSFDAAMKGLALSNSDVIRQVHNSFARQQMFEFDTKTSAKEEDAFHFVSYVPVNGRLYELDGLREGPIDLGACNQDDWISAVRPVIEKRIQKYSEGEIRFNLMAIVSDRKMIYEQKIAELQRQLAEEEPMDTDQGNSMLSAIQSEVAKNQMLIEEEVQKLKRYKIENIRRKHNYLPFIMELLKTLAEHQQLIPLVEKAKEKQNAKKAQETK
#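 Material: human UCH37 enzyme supplied as purified proteasome complex / Amount: 0.15 nM proteasome as dispensed / Buffer or medium: pH 7.4 Tris-HCl (50 mM) with ovalbumin, ATP-MgCl2, DTT / Times: preincubation 30 min, reaction 25 min, room temperature / Technique: AMC fluorescence from Ub-AMC cleavage, excitation 355 nm, emission 460 nm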
# Ecoli growth – E. coli growth inhibition; Escherichia coli growth, OD600, 23 h; active compounds read low; actives 0.21% (n = 330,000); OD600 absorbance (no concentration beside the values);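 active means OD600 absorbance below the run mean of sample wells minus 3.6 SD, in any replicate, cut at about 0.56 in these data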;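 further: stock transfer was 300 nL into about 60 µL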
# FGF22 binding – FGF22 (human) thermal shift binding; calls only at 9.99 µM; recombinant FGF22 thermal shift, SYPRO orange fluorescence; percent of sucrose octasulfate shift, DMSO zero; Q9HCT0; actives 1.5% (n = 340,000);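 active means melting point raised past a set limit in the mean and every replicate; three in four hits are not shown here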
# Target sequence (Q9HCT0 whole entry, looked up): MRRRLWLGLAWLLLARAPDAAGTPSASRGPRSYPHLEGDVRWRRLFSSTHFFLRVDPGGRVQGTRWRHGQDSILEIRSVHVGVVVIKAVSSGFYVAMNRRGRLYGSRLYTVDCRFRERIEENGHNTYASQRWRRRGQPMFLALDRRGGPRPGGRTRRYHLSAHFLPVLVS
# HNF4A DNA FP – change in binding of human HNF4 alpha to DNA; P41235; HNF4a-FITC DNA binding, fluorescence polarization, 1 h; activity change, % at 10 µM; actives 0.3% (n = 360,000); AID 1224865; in the data active means activity change above about 30%, passing the limit was not always enough;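 further: controls were the assay level and a saturating level of protein; the project sought stronger binding though the title names inhibitors; some compounds called inactive have numbers as strong as hits; positive values seem to mean higher polarization but the record does not say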
# Target sequence (P41235 whole entry, looked up): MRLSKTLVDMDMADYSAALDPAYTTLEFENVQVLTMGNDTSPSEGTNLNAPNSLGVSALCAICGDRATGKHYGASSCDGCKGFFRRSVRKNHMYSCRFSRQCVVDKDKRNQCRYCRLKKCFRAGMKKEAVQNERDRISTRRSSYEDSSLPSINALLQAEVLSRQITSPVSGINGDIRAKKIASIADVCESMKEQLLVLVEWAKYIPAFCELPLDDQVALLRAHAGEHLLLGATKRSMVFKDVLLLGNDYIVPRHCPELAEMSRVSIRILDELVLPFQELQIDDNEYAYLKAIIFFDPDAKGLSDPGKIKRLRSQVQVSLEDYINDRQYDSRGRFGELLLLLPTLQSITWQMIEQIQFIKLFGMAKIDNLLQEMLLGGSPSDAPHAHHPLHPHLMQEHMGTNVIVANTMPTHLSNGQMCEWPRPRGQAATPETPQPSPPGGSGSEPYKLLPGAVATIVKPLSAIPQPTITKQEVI
# B2AR ag – human beta-2 adrenergic receptor agonism by FAP. Am2.2-beta2AR cells, FAP receptor internalization, flow cytometry; reference of the scale not given here. response, % (concentration not given with the values). AID 504454. actives 0.43% (n = 340,000). P07550;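 active means response above a set limit, near 3 SD of response in nonfluorescent compounds, cut at about 42% in these data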;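 further: stock transfer was 100 nL into about 11 µL; a reference agonist was the positive control; negative values mostly stem from fluorescent compounds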
# ALR inh – inhibitors of human sulfhydryl oxidase ALR; P55789; purified ALR, DTT oxidation, H2O2 HRP-luminol luminescence; inhibition, % (test concentration not listed); actives 3.8% (n = 290,000);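 active means mean and each replicate at 75% or more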;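 further: stock transfer was 7.5 nL into about 7.5 µL; 0% = neutral wells and 100% = wells with inactivated enzyme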
# Ecoli rRNA inh OD600 – further read-out of Ecoli rRNA inh, marked with its call; OD600 change, %; measured here: OD600 growth;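 optical density of the mix in the first replicate; 0 = DMSO median and -100 = no signal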
# Ecoli rRNA inh RFP – further read-out of Ecoli rRNA inh, marked with its call; RFP signal change, %; measured here: RFP humanized mutant strains;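 first replicate; 0 = DMSO median and -100 = no signal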
# Starred values were filed as active, the others as inactive; i = inactive; x = not tested or not shown. Not all compounds are listed, so the mix of outcomes need not match the whole.
SMILES,Ecoli rRNA inh,Ecoli rRNA inh OD600,Ecoli rRNA inh RFP,UCH37 DUB inh,Ecoli growth,FGF22 binding,HNF4A DNA FP,B2AR ag,ALR inh
Cc1ccc([C@@H]2CC=C(C(=O)O)CN2S(=O)(=O)c2ccccc2C)cc1,-25*,-14*,-7.2*,3.8,x,i,3.3,-1,13
N#Cc1c(NC(=O)CSc2nc3ccccc3s2)sc2c1CCCC2,x,x,x,-0.9,0.71,x,-4.2,-9,-10
CCOc1ccc(-c2nc(CSc3nnc(N)s3)cs2)cc1OC,x,x,x,-0.9,0.68,x,3.4,-2,x
CC1=NN(c2ccccc2)C(=O)C1N=Nc1ccc(S(N)(=O)=O)cc1 (stereo not drawn),-6,4,-3.2,8.5,0.69,i,0.6,0,-2
Cc1ccc(CNC(=O)CSc2c3c(nc4ccc(Cl)cc24)CCCC3)o1,x,x,x,5.1,0.71,x,3.9,3,57
CCN(C(=O)c1ccco1)c1nc(-c2ccc(OC)cc2)cs1,-17,-18,-5.9,0.3,0.65,i,-3.0,-5,-1
COc1ccc(Oc2c(OC)cc([N+](=O)[O-])c3ncccc23)cc1,68,-32,35,0.6,0.7,i,3.0,0,x
CCOCCCNC(=O)c1c(N)n(-c2ccc3c(c2)OCO3)c2nc3ccccc3nc12,10,8,1.1,-374,0.74,i,1.7,5,10
C=C[C@@H]1c2c(F)cccc2N(S(=O)(=O)c2ccc(C)cc2)[C@H](c2ccc(C(=O)OC)cc2)C1(C#N)C#N,3,5,-3.0,14,x,i,7.0,-1,3
O=C(COC(=O)/C=C/c1cccc(F)c1)NC1CCCC1,9,12,-0.6,4.7,0.65,i,-1.7,2,0
O=C(N/C(=C\c1ccc([N+](=O)[O-])cc1)C(=O)N1CCCCC1)c1ccco1,0,2,-0.5,13,0.61,i,1.6,72*,-4
Cc1ccc(OCCn2cc(/C=C3\C(=O)NN(c4ccccc4)C3=O)c3ccccc32)cc1,x,x,x,5.6,0.74,x,0.3,-4,-14
O=C(CCCN1C(=O)NC2(CCCC2)C1=O)Nc1ccc(F)cc1,2,6,-1.9,2.1,0.71,i,1.2,-10,-3
CCOC(=O)c1sc(NC(=S)NC(=O)c2ccccc2)c(C(=O)OCC)c1C,x,x,x,8.6,0.69,x,0.6,-2,16
COc1ccc(NC(=O)N2CCCCCC2)c(OC)c1,10,4,-3.0,-3.6,0.69,i,3.9,-4,x
CCN(CCn1cccn1)C(=O)c1cccc(OC2CCN(S(C)(=O)=O)CC2)c1,-3,3,-1.4,1.7,0.7,i,-2.1,-4,-1
CCCCC(=O)Nc1ccc(C(=O)NNC(=O)c2cccs2)cc1,-2,-7,-5.5,0.1,0.6,i,0.9,1,1
COc1cc2c(cc1OC)CN(C1CCCN(Cc3cccc(C(C)=O)c3)C1)CC2 (stereo not drawn),7,7,2.3,-27,0.67,i,3.9,0,x
N/C(=N\OC(=O)Nc1ccccc1)c1ncc(C(F)(F)F)cc1Cl,x,x,x,1.1,x,x,3.6,-6,-4
CCOc1ccc(C(=O)N2CCN(c3ccccc3)CC2)cc1,-6,-4,-4.0,x,x,i,0.9,-1,25
CCOC(=O)N1CCN(CC(O)COc2cc(C)cc(C)c2)CC1 (stereo not drawn),15,10,15,1.1,0.64,i,-5.4,-1,1
Cc1cccc(N(CC(=O)N/N=C/c2ccc(OCC(=O)NCc3ccco3)cc2)S(C)(=O)=O)c1C,x,x,x,x,x,x,1.3,3,0
CCOC(=O)Cc1csc(N/C(=N/S(=O)(=O)c2ccc(Cl)cc2)c2ccccc2)n1,6,6,-3.6,1.1,0.72,i,-0.1,-4,11
CCC(C)C(=O)Nc1nnc(SCC(=O)NC(C)(C)C)s1 (stereo not drawn),11,16,9.3,-0.8,0.69,i,-2.3,7,x
Cc1cccc(C)c1NC(=O)C(c1ccc(C#N)cc1)n1c(=O)c(-c2cc3ccccc3[nH]2)nc2ccccc21 (stereo not drawn),14,13,4.2,x,x,i,11,x,x
Cc1cccc(CN2CCOCCS2(=O)=O)c1,17,41,27,1.8,0.68,i,-1.8,0,2
O=C(NCCCN1CCOCC1)C(=O)N/N=C/c1ccc(F)cc1,0,1,-1.9,x,x,i,0.7,10,-9
CCN(CC)CC(O)CN1C(=O)NC(C)(C)C1=O (stereo not drawn),10,9,1.5,1.2,0.7,i,-3.3,9,-12
CCOC(=O)CCCNc1ccc([N+](=O)[O-])cc1[N+](=O)[O-],x,x,x,8.3,0.67,x,-1.6,-1,0
Cc1cccc(C(C(=O)NC2CCCC2)N(Cc2cccnc2)C(=O)c2csnn2)c1 (stereo not drawn),x,x,x,3.1,0.64,i,-3.2,-1,-5
CC1CCC/C(=C\Nc2ccccc2C(=O)O)C1=O (stereo not drawn),x,x,x,-0.2,0.73,x,1.6,6,9
CC(=O)N1CCSc2ccc(S(=O)(=O)NCc3ccccc3)cc21,-1,-5,-2.6,3.8,0.66,i,-0.1,4,15
O=C(NCCO)Nc1ccc(Cl)cc1,5,-6,-4.2,0.2,0.69,i,-1.2,13,-2
CN(C)c1ccc(C=C2C=CC=C2)cc1,2,10,-2.7,2.8,0.67,i,2.3,5,x
CC1CCCCN1CCCNC(=O)CN1C(=O)c2cccnc2Oc2ccc(Cl)cc21 (stereo not drawn),10,2,0.7,0.2,0.69,i,-4.4,8,-10
Cc1cccc(/C(N)=N/OC(=O)Cc2ccccc2)c1,2,0,0.2,2.4,x,i,-5.7,-5,-7
CCOC(=O)/C(C#N)=C\c1ccc2c(c1)OCO2,x,x,x,5.8,0.68,x,2.1,2,-7
O=C(NCCN1C(=O)S/C(=C\c2cccnc2)C1=O)c1ccc(S(=O)(=O)N2CCCC2)cc1,3,4,4.7,4.7,0.71,i,-0.3,-12,-21
Nc1nonc1C(=O)N/N=C/c1ccc(-c2cccc([N+](=O)[O-])c2)o1,x,x,x,x,x,x,-1.9,7,2
Cc1ccc(C)c(-c2csc(-c3cccnc3)n2)c1,-4,-4,-1.0,3.1,0.65,i,-5.2,-2,10
COc1ccc(OCCSc2nc(C)nc3ccccc23)cc1,-11,-47,-5.5,1.9,0.64,i,-2.3,-27,14
COc1ccc(C(=O)CCC(=O)Nc2ccc(Cl)cc2)cc1,13,18,4.1,4.9,0.69,i,2.8,0,-2
O=Cc1cccc2ccc3cccc(C(=O)O)c3c12,-4,-6,0.1,-4.9,0.66,i,3.4,-3,-7
COc1ccc(-c2csc(NC(=O)c3ccc(N4C(=O)CCC4=O)cc3)n2)cc1OC,8,15,1.3,-18,0.73,i,-4.2,-4,8
O=C(/C=C/c1ccccc1)NNC1=NS(=O)(=O)c2ccccc21,16,14,-1.7,23*,0.7,i,3.3,0,8
C/C(=N/NC(=O)CNC(=O)c1cccnc1)c1cccc([N+](=O)[O-])c1,8,8,1.0,x,x,i,3.6,7,0
CCN=C1S/C(=C\c2cc(OCC)c(O)cc2Br)C(=O)N1CC,x,x,x,3.8,0.73,x,-1.3,-50,-66
COCc1c(C(=O)N2CCN(c3ccccc3C)CC2)oc2ccccc12,x,x,x,5.3,0.69,i,0.8,1,15

# Complete entries as entered above:
# Results for CCOC(=O)CCCNc1ccc([N+](=O)[O-])cc1[N+](=O)[O-] = Ecoli rRNA inh = x; Ecoli rRNA inh OD600 = x; Ecoli rRNA inh RFP = x; UCH37 DUB inh = 8.3; Ecoli growth = 0.67; FGF22 binding = x; HNF4A DNA FP = -1.6; B2AR ag = -1; ALR inh = 0
# Results for O=C(/C=C/c1ccccc1)NNC1=NS(=O)(=O)c2ccccc21 = Ecoli rRNA inh = 16; Ecoli rRNA inh OD600 = 14; Ecoli rRNA inh RFP = -1.7; UCH37 DUB inh = 23*; Ecoli growth = 0.7; FGF22 binding = i; HNF4A DNA FP = 3.3; B2AR ag = 0; ALR inh = 8
# Results for CC1=NN(c2ccccc2)C(=O)C1N=Nc1ccc(S(N)(=O)=O)cc1 (stereo not drawn) = Ecoli rRNA inh = -6; Ecoli rRNA inh OD600 = 4; Ecoli rRNA inh RFP = -3.2; UCH37 DUB inh = 8.5; Ecoli growth = 0.69; FGF22 binding = i; HNF4A DNA FP = 0.6; B2AR ag = 0; ALR inh = -2

# Other results.
SMILES,Ecoli rRNA inh,Ecoli rRNA inh OD600,Ecoli rRNA inh RFP,UCH37 DUB inh,Ecoli growth,FGF22 binding,HNF4A DNA FP,B2AR ag,ALR inh
Cc1cccc(/C=N/Nc2ccc3ccccc3n2)c1,6,6,-1.0,x,x,i,4.8,-1,x
CC(C)CCC(CCN1CCOCC1)c1ccc2c(c1)OCO2 (stereo not drawn),x,x,x,1.0,0.71,x,5.1,-7,-14
CN(CCO)c1cc(NCCCN2CCC(Cc3ccccc3)CC2)c2nonc2c1[N+](=O)[O-],-1,0,-0.7,8.4,0.64,i,1.6,16,-9
CC(NC(=O)COC(=O)C1CCN(c2ccc(C(F)(F)F)cn2)CC1)c1ccc(Br)cc1 (stereo not drawn),-24*,-18*,-3.4*,1.8,0.74,i,1.8,2,0
COc1ccc(CCNC(=O)COC(=O)CCC(=O)c2cccs2)cc1OC,5,8,-0.7,2.9,0.7,i,2.7,-4,1
O=C(NCC1CCCO1)c1cccc(N2C(=O)C3C4C=CC(C4)C3C2=O)c1 (stereo not drawn),x,x,x,0.0,0.69,x,2.2,2,-5
CCCCn1c(N)c(N(CCC(C)C)C(=O)c2ccc([N+](=O)[O-])s2)c(=O)[nH]c1=O,8,-3,1.2,4.4,0.69,i,-0.6,2,-39
CC(C)C[C@@H](CO)NC(=O)CC[C@H](NC(=O)OC(C)(C)C)C(=O)N(Cc1ccccc1)Cc1ccccc1,11,11,2.2,4.3,x,i,-1.5,1,0
CC(C)(C)OC(=O)N[C@@H](CC(=O)OCc1ccccc1)C(=O)O,14,10,3.3,3.2,0.69,x,-2.1,-3,-6
Cc1noc(C)c1CSCC(=O)Nc1nc(-c2ccc(F)c(F)c2)cs1,-21,-39,-1.9,1.8,0.7,i,1.1,16,9
O=C(/C=C/c1ccc(S(=O)(=O)N2CCOCC2)cc1)NCCc1ccc(C(F)(F)F)cc1,-4,-5,-0.9,0.4,0.67,i,-0.8,-13,-7
COc1cccc(C2c3c(oc4ccc(F)cc4c3=O)C(=O)N2CCN2CCOCC2)c1OC (stereo not drawn),4,3,-0.7,2.8,0.73,i,0.8,-14,x
CCOc1ccc2nc(Cl)c(C3CC(c4ccco4)=NN3S(=O)(=O)c3ccccc3)cc2c1 (stereo not drawn),x,x,x,-4.0,0.68,x,7.4,-2,-1
Cc1ccsc1/C=N/NC(=O)c1ccccn1,x,x,x,x,x,x,4.7,-2,-1
O=C(O)c1cc(-c2ccccc2)nc2ccccc12,3,-1,1.4,3.8,0.71,i,0.6,-1,4
O=[N+]([O-])c1ccccc1CN1CCN(S(=O)(=O)c2ccccc2)CC1,-25*,-7.5*,-0.4*,4.3,0.7,i,0.7,0,-5
COCCN(C(=O)c1sc2ccccc2c1Cl)c1c(N)n(CC(C)C)c(=O)[nH]c1=O,4,5,-0.8,2.4,0.67,i,-0.6,-7,6
Cc1ccc(SCc2[nH]nc3c2C(C(C)C)C(C#N)=C(N)O3)cc1 (stereo not drawn),x,x,x,3.0,0.72,x,-1.1,9,x

# 2 records drawn at random from the list so far:
SMILES,Ecoli rRNA inh,Ecoli rRNA inh OD600,Ecoli rRNA inh RFP,UCH37 DUB inh,Ecoli growth,FGF22 binding,HNF4A DNA FP,B2AR ag,ALR inh
CCOc1ccc2nc(Cl)c(C3CC(c4ccco4)=NN3S(=O)(=O)c3ccccc3)cc2c1 (stereo not drawn),x,x,x,-4.0,0.68,x,7.4,-2,-1
Cc1ccc(SCc2[nH]nc3c2C(C(C)C)C(C#N)=C(N)O3)cc1 (stereo not drawn),x,x,x,3.0,0.72,x,-1.1,9,x
